Methyltransferases: Primary Screen for Target Class Profiling of Small Molecule Inhibitors of Methyltransferases; purified enzyme, MTase-Glo SAH luminescence; hits give low values; calls only at 40 µM; actives 3.9% (n = 25,000); active = -50% or lower on at least one of six enzymes; inconclusive = the cases between; inactive = as a rule above -30% on all six;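 further: enzymes were COMT GAMT GNMT HNMT NNMT and PNMT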
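Each enzyme was reacted with SAM and its substrate, with compounds tested once at 40 uM; SAH formed was read by MTase-Glo luminescence.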
Calls only; i = inactive; ? = inconclusive; + = active, no number. On the % scale 0 is the no-effect control and ±100 the full control effect.

entry | canonical_smiles | Methyltransferases
1 | COc1ccc(OC)c2c1cc1n2CC(C)(C(=O)NC2CCCC2)N(Cc2cccs2)C1=O (stereo not given) | i
2 | CC(/C=C/C1(O)C(C)CC(O)CC1(C)C)OC1OC(CO)C(O)C(O)C1O (stereo not given) | i
3 | COc1cc(Nc2ncc(F)c(Nc3ccc4c(n3)NC(=O)C(C)(C)O4)n2)cc(OC)c1OC | i
4 | CCN1C(=O)C2CC3(CCN(C(=O)c4cc(C)n(CCOC)c4C)CC3)CN2C1=O (stereo not given) | i
5 | CC(=O)Nc1c2n(c3ccccc13)CC(C)(C(=O)NC1CCCC1)N(C1CCCCC1)C2=O (stereo not given) | i
6 | CC1(C(=O)NC2CCCCCC2)Cn2c(cc3sccc32)C(=O)N1Cc1ccccn1 (stereo not given) | i
7 | COc1ccc(-c2cc3n(n2)CC(C)(C(=O)NCc2ccccc2)N(Cc2cccc(OC)c2)C3=O)cc1 (stereo not given) | i
8 | COc1cccc(NC(=O)CCC2CCN(C(=O)C(C)n3cncn3)CC2)c1 (stereo not given) | i
9 | COc1ccc(CC(=O)N2CCC(c3n[nH]c(=O)n3Cc3ccc(F)cc3)CC2)cc1 | i
10 | Cc1ccc(CNC(=O)CCc2nnc3n(Cc4ccccc4)c(=O)c4ccccc4n23)cc1 | i
11 | CNC(=O)c1ccc(-c2cnc3ncc(Cc4ccc5ncccc5c4)n3n2)cc1F | ?
12 | CCC1(N2CCN(C(=O)Nc3cc(C)ccc3OC)CC2)CCN(C(=O)C(C)C)C1 (stereo not given) | i
13 | CC1(C(=O)NCc2ccccc2)Cn2nc(-c3ccccc3)cc2C(=O)N1CCc1ccccc1 (stereo not given) | i
14 | O=C1CCCN1c1ccc(CN2CC(=O)N(Cc3cccc(F)c3)c3ccccc3S2(=O)=O)cc1 | i
15 | C=CCc1cc(OC)c(OC(C)C(O)c2ccc(O)c(OC)c2)c(OC)c1 (stereo not given) | i
16 | Cc1cc(CC(=O)N2C[C@@H](COCC3CC3)[C@H](c3ccncc3)C2)on1 | i
17 | Cc1cc(CNC(=O)Cc2nonc2C)c2[nH]c(-c3ccccc3)c(C)c2c1 | i
18 | CC(C)CCNC(=O)C1(C)Cn2nc(C(=O)NCc3ccc(N(C)C)cc3)cc2C(=O)N1C (stereo not given) | i
19 | COc1ccc(C2C(C(=O)O)C(C(=O)O)C2c2ccc(OC)cc2O[C@@H]2O[C@H](CO)[C@@H](O)[C@H](O)[C@H]2O)c(O[C@@H]2O[C@H](CO)[C@@H](O)[C@H](O)[C@H]2O)c1 (stereo not given in full) | i
20 | CC(O)/C=C/C1(O)C2(C)COC1(C)CC(O)C2 (stereo not given) | i
21 | O=C(Cc1ccc(C(F)(F)F)cc1)N1CC(COc2ccccc2)C2(C1)CN(C(=O)c1cn[nH]c1)C2 (stereo not given) | i
22 | COc1ccccc1CNC(=O)c1ncn2c1C(=O)N(C1CC1)C(C)(C(=O)NCc1ccc(C)cc1)C2 (stereo not given) | i
23 | CC(C)CNC(=O)c1ccc2c(=O)n(C(C)C)c3n[nH]c(=O)n3c2c1 | i
24 | CC(C)CCn1c(=O)c2ccc(C(=O)NC3CCCC3)cc2n2c(=O)n(Cc3ccccc3F)nc12 | i
25 | Cc1cc2c(c(=O)[nH]1)OC(C(O)CC(C)C)O2 (stereo not given) | i
26 | C[C@@H]1CN(C(=O)c2ccc(Cn3cnnn3)cc2)C[C@@]1(O)C1CCC1 | i
27 | CCOC(=O)c1cc2n(n1)CC(C)(C(=O)NC1CCCCCC1)N(c1ccc3c(c1)OCO3)C2=O (stereo not given) | i
28 | O=C(Cn1ccc2cc(S(=O)(=O)N3CCCCC3)ccc21)NC1CCN(Cc2ccccc2)CC1 | i
29 | CN(CC1CCOCC1)S(=O)(=O)c1ccc(Cl)s1 | i
30 | COCCc1noc(-c2ccc(N(C)Cc3ncc(C)[nH]3)nc2)n1 | i
31 | CCCn1c(=O)c2ccc(C(=O)NC(C)CC)cc2n2c(SCC(=O)Nc3ccccc3C)nnc12 (stereo not given) | i
32 | Cc1nnc2n1CCC(N(C)S(=O)(=O)c1cccnc1)CC2 (stereo not given) | i
33 | O=C(O)Cc1c[nH]c2ccc(O)cc12 | i
34 | CCC(=O)N1CCc2c(C(=O)N3CCCCC3)cccc21 | i
35 | CCc1cc(C(=O)N2CCC(n3nccc3NC(=O)CCOc3ccccc3)CC2)no1 | i
36 | CC(=O)N1CCN(C(=O)c2ccc3oc(-c4ccncc4Cl)nc3c2)CC1 | i
37 | CN(Cc1cccnc1)C(=O)c1n[nH]c2c1CN(Cc1cccnc1)CC2 | i
38 | COc1ccc(NC(=O)C[C@@H]2C[C@@H](C(C)C)[C@H](CC#N)C=C2C)cn1 | i
39 | CC(C)(C)NC(=O)Cn1nc2n(Cc3ccccc3)c(=O)c3ccc(C(=O)NC4CCCC4)cc3n2c1=O | i
40 | COC(=O)C1=CO[C@@H](O[C@@H]2O[C@H](CO[C@@H]3O[C@H](COC(=O)/C=C/c4ccc(O)cc4)[C@@H](O)[C@H](O)[C@H]3O)[C@@H](O)[C@H](O)[C@H]2O)[C@@H]2C(CO)=CC[C@H]12 | i
41 | CCc1cc2c(cc3n2CC(C)(C(=O)NC2CCCCCC2)N(Cc2ccccc2F)C3=O)s1 (stereo not given) | i
42 | COc1ccc(OC)c2c1cc1n2CC(C)(C(=O)NC2CCCCC2)N(Cc2cccs2)C1=O (stereo not given) | i
43 | O=C(Cn1nc2n(Cc3ccccc3)c(=O)c3ccccc3n2c1=O)Nc1cccc(Cl)c1 | i
44 | CC(C)OCCCNC(=O)C1(C)Cn2c(cc3ccccc32)C(=O)N1CCc1cccs1 (stereo not given) | i
45 | Cc1ccc(CNC(=O)CN(C)S(=O)(=O)c2ccc3[nH]c4c(c3c2)CCCC4)cc1 | i
46 | COc1cccc(CN2C(=O)c3cc4ccccc4n3CC2(C)C(=O)NCCCOC(C)C)c1OC (stereo not given) | i
47 | COc1ccccc1-c1nc2nccc(-c3cc(OC)c(OC)c(OC)c3)n2n1 | i
48 | CC(C)CCNC(=O)C1(C)Cn2c(cc3ccccc32)C(=O)N1C1CCN(Cc2ccccc2)CC1 (stereo not given) | i
49 | C=CCc1ccccc1OCCN(C)Cc1ccccc1C(=O)O | i
50 | O=C(CN1CCOC1=O)N1CCn2nc(C(O)Cc3ccccc3)cc2C1 (stereo not given) | i
51 | CCOC(=O)C1=C(CN2CCn3cccc3C2C)NC(=O)NC1c1cccc(OC)c1OC (stereo not given) | i
52 | O=S(=O)(Cc1ccccc1)NC[C@H]1Cn2cc(-c3ccccc3)nc2CO1 | i
53 | O=C(CSc1nnc2n(Cc3ccccc3)c(=O)c3ccccc3n12)NC1CCCCC1 | i
54 | COCCOCC(=O)N1CCCN(Cc2ccncc2)C(c2ccccc2)CC(=O)NCC1 (stereo not given) | i
55 | CCOC(=O)c1cc2n(n1)CC(C)(C(=O)NCCOC)N(c1cccc(F)c1)C2=O (stereo not given) | i
56 | CN(C)C[C@@H]1CN(c2ncccn2)C[C@H]1NS(=O)(=O)Cc1ccc(F)cc1 | i
57 | CCC(C)NC(=O)c1ccc2c(=O)n(C)c3nn(CC(=O)Nc4ccc(C)c(F)c4)c(=O)n3c2c1 (stereo not given) | i
58 | CC1(C(=O)NCc2ccccc2)Cn2nc(-c3ccccc3)cc2C(=O)N1Cc1ccccc1 (stereo not given) | i
59 | O=C(c1ccnc(-c2ccncc2)c1)N1CCCC1 | i
60 | CCn1cc(CN2CCC(N3C(=O)C4(CCCCC4)C3c3ccncc3)CC2)cn1 (stereo not given) | i

By substructure: the entries above containing fluorine (ten)
entry | canonical_smiles | Methyltransferases
3 | COc1cc(Nc2ncc(F)c(Nc3ccc4c(n3)NC(=O)C(C)(C)O4)n2)cc(OC)c1OC | i
9 | COc1ccc(CC(=O)N2CCC(c3n[nH]c(=O)n3Cc3ccc(F)cc3)CC2)cc1 | i
11 | CNC(=O)c1ccc(-c2cnc3ncc(Cc4ccc5ncccc5c4)n3n2)cc1F | ?
14 | O=C1CCCN1c1ccc(CN2CC(=O)N(Cc3cccc(F)c3)c3ccccc3S2(=O)=O)cc1 | i
21 | O=C(Cc1ccc(C(F)(F)F)cc1)N1CC(COc2ccccc2)C2(C1)CN(C(=O)c1cn[nH]c1)C2 (stereo not given) | i
24 | CC(C)CCn1c(=O)c2ccc(C(=O)NC3CCCC3)cc2n2c(=O)n(Cc3ccccc3F)nc12 | i
41 | CCc1cc2c(cc3n2CC(C)(C(=O)NC2CCCCCC2)N(Cc2ccccc2F)C3=O)s1 (stereo not given) | i
55 | CCOC(=O)c1cc2n(n1)CC(C)(C(=O)NCCOC)N(c1cccc(F)c1)C2=O (stereo not given) | i
56 | CN(C)C[C@@H]1CN(c2ncccn2)C[C@H]1NS(=O)(=O)Cc1ccc(F)cc1 | i
57 | CCC(C)NC(=O)c1ccc2c(=O)n(C)c3nn(CC(=O)Nc4ccc(C)c(F)c4)c(=O)n3c2c1 (stereo not given) | i

New compounds follow.
entry | canonical_smiles | Methyltransferases
61 | COc1ccc(Cl)cc1NS(=O)(=O)c1ccc2c(c1)n(C)c(=O)n2C | i
62 | CC(=O)C1(C)CCC2C3C=C(C)C4=CC(=O)CCC4(C)C3CCC21C (stereo not given) | i
63 | COc1ccc(CNC(=O)Cn2nc3n(CC(C)C)c(=O)c4ccccc4n3c2=O)cc1 | i
64 | COCc1ccc(C(=O)NCc2cc(C)cc3c(C)c(C)[nH]c23)o1 | i
65 | NC(N)=NC(N)=Nc1cccc(Cl)c1 | i
66 | CC(C)OCCCNC(=O)CCc1nnc2n(Cc3ccc(Cl)cc3)c(=O)c3ccccc3n12 | i
67 | Cc1nc2cnccn2c1C(=O)N1CCC(C#N)CC1 | i
68 | O=C(C1CCCC1)N1CCC(Oc2cccnc2)C1 (stereo not given) | i
69 | Cn1c2c(c3ccccc31)C(C(=O)NCc1ccccc1)N(CCC1=CCCCC1)C(=O)CS2 (stereo not given) | i
70 | CC(=O)N1CCN(C(=O)c2cc(-c3ccc(F)cc3)c3nncn3n2)CC1 | i
71 | Cc1cccc(-c2nc3ccc(C(=O)NC4CCCCCC4)cc3o2)n1 | i
72 | O=C(NC1CCOC2(CCOCC2)C1)c1ccc(-c2cnco2)cc1 (stereo not given) | i
73 | CC(C)Cn1nc(CNC(=O)c2ccccc2C(F)(F)F)c2ccccc21 | i
74 | CCCn1c(=O)c2ccc(C(=O)NC(C)CC)cc2n2c(=O)n(CC(=O)NC(C)C)nc12 (stereo not given) | i
75 | CC1CCN(S(=O)(=O)c2ccc3c(c2)oc(=O)n3CC(=O)N2CC(C)CC(C)C2)CC1 (stereo not given) | i
76 | CC(C)(C)c1ccc(-c2cc(C[C@H]3CNCC[C@H]3CC(=O)N3CCOCC3)no2)cc1 | ?
77 | COc1ccc(CN2C(=O)c3c(-n4cccc4)c4ccccc4n3CC2(C)C(=O)NC2CCCC2)cc1 (stereo not given) | i
78 | CC1(C(=O)NC2CCCCC2)Cn2c(cc3occc32)C(=O)N1Cc1cccnc1 (stereo not given) | i
79 | COc1ccc(-c2n[nH]n3c2nc(=O)c2ccc(C(=O)NCc4ccccc4)cc23)cc1 | i
80 | COc1ccc(NC(=O)C2C[C@H](C)CC[C@H]2C(C)C)cc1 (stereo not given in full) | i
81 | Cc1ccc(Cn2c(=O)c3ccccc3n3c(CCC(=O)NC4CCN(Cc5ccccc5)CC4)nnc23)cc1 | i
82 | Cc1ccccc1CN1C(=O)c2cc(C(C)(C)C)nn2CC1(C)C(=O)NCc1ccccc1 (stereo not given) | i
83 | Cc1ccc(CN2C(=O)c3ccc(-c4ccco4)n3CC2(C)C(=O)NC2CCC(C)CC2)cc1 (stereo not given) | i
84 | C/C=C1/C[N+](C)([O-])C2Cc3c([nH]c4ccccc34)C(=O)CC1C2C(=O)OC (stereo not given) | i
85 | CC(C)c1nc(-c2ccc(OC3CCN(C(=O)c4n[nH]c5ccccc45)C3)cc2)no1 (stereo not given) | i
86 | CC1(C(=O)NC2CCCC2)Cn2cnc(C(=O)NCCCc3ccccc3)c2C(=O)N1C1CC1 (stereo not given) | i
87 | CC(C)CN1C(=O)C(C)(C)[S+](=O)([O-])[C@@H]2CN(c3ccc(OC(F)(F)F)cc3)C[C@@H]21 | i
88 | CCC1c2ccc(C)n2CCN1C(=O)Nc1ccccc1C(=O)OC (stereo not given) | i
89 | O=C(Nc1ccc(C(O)(C(F)(F)F)C(F)(F)F)cc1)c1ccc(C(F)(F)F)cc1 | i
90 | CC1CCN(S(=O)(=O)c2ccc3c(ccn3CCC(=O)NC3CCCC(C)C3C)c2)CC1 (stereo not given) | i
91 | CC(C)C[C@@H]1NC(=O)[C@@H](Cc2ccccc2)NC(=O)C(CCCCCC(=O)C2CO2)NC(=O)[C@@H]2CCCCN2C1=O (stereo not given in full) | i
92 | COc1cc(O)c2c(c1)C1=CC(O)C(O)CC1(C)OC2=O (stereo not given) | i
93 | C[C@@H]1CN(Cc2ccccc2)C[C@H]1c1nc2c(cnn2C2CCOCC2)c(=O)[nH]1 | i
94 | Cc1ccccc1N1C(=O)CSc2c(c3ccccc3n2C)C1C(=O)NCc1ccccc1 (stereo not given) | i
95 | CCOc1ccc(CCNC(=O)CCn2ccc3cc(S(=O)(=O)N4CCCCC4)ccc32)cc1 | i
96 | Cc1ccc(Cn2c(=O)c3ccccc3n3c(SCC(=O)NC4CCCCC4)nnc23)cc1 | i
97 | Cc1ccc(NC(=O)c2ccc(CN3CC[C@H](N(C)C)C3)c(C(F)(F)F)c2)cc1Nc1nccc(-c2cncnc2)n1 | ?
98 | CNC(=O)c1ccc2c(C(=Nc3cccc(CN(C)C)c3)c3ccccc3)c(O)[nH]c2c1 | +
99 | CC(C(=O)N1CCCCC1)n1ccc2cc(S(=O)(=O)N3CCCC3)ccc21 (stereo not given) | i
100 | COc1ccc(-c2nnc(-c3ccc(OC)c(S(=O)(=O)N4CCC(C)CC4)c3)o2)cc1OC | i
101 | CCC(C)C1NC(=O)C2CCCN2C(=O)C(CC(O)CO)OC(=O)CCNC(=O)C(C)N(C)C(=O)C(C(C)C)N(C)C1=O (stereo not given) | i
102 | COCCC1(NC(=O)C2CC2)CCN(S(=O)(=O)c2cc(OC)ccc2OC)CC1 | i
103 | C=C1CCC[C@]2(C)CC/C(=C(/CO)C(=O)OC)C[C@@H]12 | i
104 | C=CCCC(=O)N1c2cccc3c2[C@@H](C[C@H]1C(N)=O)CN(c1ccccc1)C3=O | i

Some of the compounds tested; rates above refer to the full screens.
